Source: PubChem (National Center for Advancing Translational Sciences (NCATS))
Anthrax LT inh: blocks cellular internalization of anthrax lethal toxin; Cells, anthrax lethal toxin internalization, FRET ratio (460/530); 70,000 tested, 0.67% active; Potency, µM (titrated, usually from 40 µM), for the others: at the highest dose activity change, negative = inhibition, usual class: inhibitors; active = well fitted falling ratio curve with the 530 nm signal flat; inconclusive = other ratio curves, or a change in one channel alone; inactive = flat curves in the ratio and both channels; the % refers to the ratio; further: on the % scale 0 is the no-effect control and ±100 the full control effect; nearly all actives have a fitted effect of over 50% in size; tested in ME-180 cells; beta-lactamase reporter
SmPrx2 inh: blocks S. mansoni peroxiredoxin 2 enzymatic activity | 65,000 tested, 0.07% active | Potency, µM | S. mansoni Prx2 activity coupled to TGR/GSH (TGR is thioredoxin glutathione reductase), NADPH fluorescence loss, qHTS; some inactives read as strong as hits; active means full or partial inhibition curve with a strong effect at the top dose; inconclusive means weaker partial or single-point curve; inactive means no accepted curve; further: series up to 57 µM; many of its hits are not listed in these tables
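Activity is read as the drop in NADPH fluorescence (365/450 nm), recorded every 30 sec for 8 min after H2O2 addition. Prx2 is coupled to TGR-driven NADPH oxidation through glutathione, in phosphate buffer pH 7.4.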
* = called active by the depositor; ? = inconclusive; · = not tested or not shown; & = joins results of further samples; [ ] = remark or other dose. Potency means the concentration at half of the fitted maximal effect. A portion of the library, so the mix of outcomes need not match the whole.

Value order: SmPrx2 inh	Anthrax LT inh
> O=C(CN1C(=O)CCC1=O)Nc1nc(-c2ccc(Cl)s2)cs1
→ >57	9%
> COc1cccc([C@@H]2Oc3ccc(Br)cc3C(=O)[C@H]2O)c1
→ ·	-20%[8 µM]
> Cc1cc(C(=O)CSc2nnc(Nc3ccccc3F)s2)c(C)n1CC1CCCO1 (stereo not given)
→ >57	-8%
> COC(=O)[C@@H]1C[C@H]1[C@@H](NC(=O)c1cccnc1)c1ccccc1
→ >57	2%
> CCn1c(SCC(=O)Nc2nc3ccc(C)cc3s2)nc2c(c1=O)SC(C)C2 (stereo not given)
→ >57	0%
> CCOc1cc(N2CCOCC2)c(OCC)cc1NC(=O)CSc1cccc[n+]1[O-]
→ >57	-7%
> CN(C)c1ncnc2ccc(-c3cccnc3)cc12
→ >57	?
> Cn1ncc(Br)c1C(=O)Nc1ccc(Cl)cn1
→ >57	-5%
> CCOc1ccc(NC(=O)C(CC)NC(=O)c2ccccc2CO)cc1 (stereo not given)
→ >57	15%
> COc1cccc(NC(=O)Nc2cc(C)ccc2F)c1
→ >57	-14%
> CCN(CC)c1nc2ccccc2nc1C(C#N)C(=O)NCCc1ccccc1 (stereo not given)
→ >57	?
> N#CCCC12CCCCC1=Nc1ccccc12 (stereo not given)
→ >57	8%
> CCOCCn1c(CN2CCN(c3ccccc3)CC2)nc2c1c(=O)n(C)c(=O)n2C
→ >57	16%
> O=S(=O)(NCC1CCCO1)c1cccc(C(F)(F)F)c1 (stereo not given)
→ >57	7%
> CC(=O)c1c(C)n(C)c2ccc(OC(=O)c3ccco3)cc12
→ >57	-15%
> CCOC(=O)c1[nH]c2ccccc2c1NC(=O)CN1CCCCC1
→ >57	-14%
> O=C(Cn1nnc2c(cnn2-c2ccc(F)cc2)c1=O)OC1CCCCC1
→ >57	-23%
> CCCCOc1ccccc1NC(=O)CC1SC(=NCC)N(CC)C1=O (stereo not given)
→ ?	-4%
> COC(=O)[C@@]1(Cc2ccc(F)cc2)[C@H]2c3cc(C(=O)N(C)C)n(C)c3C[C@H]2CN1C(=O)c1ccccc1
→ >57	2%
> C=CCn1c(=N)n(CC(O)c2ccco2)c2ccccc21 (stereo not given)
→ >57	?
> CC(C)[C@@H](C(=O)NCC1CCC(C(=O)O)CC1)n1nnc2ccccc2c1=O (stereo not given in full)
→ >57	17%
> C/C=C/c1ccc(OCCn2cncn2)c(OC)c1
→ >57	-5%
> COc1ccc(OC)c(NC(=O)c2nnn(Cc3ccc(Br)cc3F)c2N)c1
→ ?	?
> COc1ccc(Oc2nc(Oc3ccc(OC)cc3)nc(Oc3ccc(OC)cc3)n2)cc1
→ ·	3%
> COc1ccc(-n2nc(C(=O)NCc3ccco3)c3c4ccccc4n(C)c3c2=O)cc1Cl
→ >57	-6%
> CCOC(=O)C1[C@H]2C(=O)N(CCCOC)C[C@]23C=C[C@H]1O3 (stereo not given in full)
→ >57	13%
> CN[C@@H]1NC(=O)c2ccccc2N1Cc1ccc(F)cc1
→ >57	-5%[8 µM]
> Cc1noc(C)c1S(=O)(=O)N1CCCC(C(=O)N2CCc3ccccc3C2)C1 (stereo not given)
→ >57	-12%
> Cc1cc(Cl)ccc1OCC(=O)N1CC(C)CC(C)C1 (stereo not given)
→ >57	0%
> CC(C)c1ccc2c(c1)c(SC(C)(C)C)c(CC(C)(C)C(=O)O)n2Cc1ccc(Cl)cc1
→ >57	?
> Cc1c(NC(=O)NCc2ccccc2)c(=O)n(-c2ccccc2)n1C
→ >57	-11%
> Cc1nc2ccc(C(=O)N3CCSCC3)cc2s1
→ >57	1%
> O=C(O)c1ccc(CSc2nnc(-c3ccco3)o2)cc1
→ >57	2%
> c1cn(CC2(Cn3ccnc3)COC2)cn1
→ >57	8%
> CN(C)c1ccc(Nc2nc(-c3cccnc3)cs2)cc1
→ >57	?
> Cc1onc(-c2c(F)cccc2Cl)c1C(=O)NCc1cccs1
→ >57	11%
> COc1ccc2c(c1OC)C(=O)O[C@@H]2[C@H]1c2c(cc3c(c2OC)OCO3)CCN1C
→ >26	?
> Cc1ccc(Cn2c(N3CCCCCC3)nc3c2c(=O)[nH]c(=O)n3C)cc1
→ >57	-16%
> Cc1nc2ccc3nc(NC(=O)c4ccc5c(c4)OCCO5)sc3c2s1
→ >57	-9%
> CN(C)c1ccnc(SCc2ccccc2Cl)c1C#N
→ >57	7.9µM*

4 entries from above, set out differently:
Compound: CC(C)c1ccc2c(c1)c(SC(C)(C)C)c(CC(C)(C)C(=O)O)n2Cc1ccc(Cl)cc1
  SmPrx2 inh: >57
  Anthrax LT inh: ?
Compound: COc1ccc(OC)c(NC(=O)c2nnn(Cc3ccc(Br)cc3F)c2N)c1
  SmPrx2 inh: ?
  Anthrax LT inh: ?
Compound: COc1ccc2c(c1OC)C(=O)O[C@@H]2[C@H]1c2c(cc3c(c2OC)OCO3)CCN1C
  SmPrx2 inh: >26
  Anthrax LT inh: ?
Compound: Cc1onc(-c2c(F)cccc2Cl)c1C(=O)NCc1cccs1
  SmPrx2 inh: >57
  Anthrax LT inh: 11%

(next part)
Value order: SmPrx2 inh	Anthrax LT inh
> Cc1oc(-c2ccccc2F)nc1CS(=O)CC(=O)NCc1cccs1 (stereo not given)
→ >57	0%
> COCCn1c(=O)c(-c2cc(F)cc(F)c2)nc2cnc(OCc3ccccc3)nc21
→ >57	?
> COc1ccc(OC(C)C(=O)N2CCc3ccccc3C2)cc1 (stereo not given)
→ >57	-5%
> CC(=O)N1CCN(c2cccc(C)c2C)CC1
→ ·	-9%
> COC(=O)C1=CN(C)C=C(C(=O)OC)C1c1ccccc1Cl
→ >57	?
> COC(=O)c1ccc(OC(=O)c2ccc(OCc3c(C)noc3C)c(OC)c2)cc1
→ >57	?
> Cc1cc(NC(=O)Cn2cc(C(F)(F)F)cc(Cl)c2=O)no1
→ >57	-13%
> CN(C)c1ccc(N=Cc2c(O)n(CCC3=CCCCC3)c(=O)[nH]c2=O)cc1
→ >57	6%
> Cc1nn(C)c(C)c1S(=O)(=O)N1CCCC(C(=O)NC2CCCCCC2)C1 (stereo not given)
→ >57	-17%
> CC(C)(C)c1[nH]nc2c1C(c1ccccc1OC(=O)N1CCOCC1)C(C#N)=C(N)O2 (stereo not given)
→ >57	8%
> Cc1cc(S(=O)(=O)Nc2cccnc2)c(C)s1
→ >57	?
> CCSc1nnc(NC(=O)c2cccc(OCc3c(C)noc3C)c2)s1
→ >57	9%
> COc1ccccc1N1CCN(CC(O)COc2ccc(S(=O)(=O)N3CCOCC3)cc2)CC1 (stereo not given)
→ >57	15%
> COc1ccc(S(=O)(=O)NC2CC(C)(C)NC(C)(C)C2)c(C)c1C
→ >57	2%
> COc1cccc(C2C(C(=O)NCc3ccccc3)=C(C)Nc3ncnn32)c1 (stereo not given)
→ >57	-14%
> CCc1c(C)nc(N)n2c(SCC(=O)N3CCN(c4ccccc4)CC3)nnc12
→ >57	13%
> Cc1oc(-c2ccccc2F)nc1CS(=O)(=O)CC(=O)NCCCc1ccccc1
→ >57	-30%
> O=C1c2ccccc2C(=O)N1CCSc1nnc(-c2ccco2)n1Cc1ccccc1
→ >57	?
> CCCc1nc2ccccc2c(=O)n1-c1c(C)n(C)n(-c2ccccc2)c1=O
→ >57	-12%
> N#CNC(N)=Nc1ccc(Cl)cc1
→ >57	?

Entries shown so far containing a CF3 group:
Value order: SmPrx2 inh	Anthrax LT inh
> O=S(=O)(NCC1CCCO1)c1cccc(C(F)(F)F)c1 (stereo not given)
→ >57	7%
> Cc1cc(NC(=O)Cn2cc(C(F)(F)F)cc(Cl)c2=O)no1
→ >57	-13%

The list continues:
Value order: SmPrx2 inh	Anthrax LT inh
> O=C1CC(N2CCN(c3ccccc3F)CC2)C(=O)N1c1ccc2c(c1)OCCO2 (stereo not given)
→ >57	-3%
> CC(CC(=O)O)(CC(=O)O)c1ccccc1
→ >57	3%[8 µM]
> CCCCOC(=O)Nc1nc(C)c(C(=O)OCC)s1
→ ·	-2%
> CC(/C(O)=C(\C#N)c1nc2ccccc2n1C)N1C(=O)c2ccccc2C1=O (stereo not given)
→ >57	14%
> COc1ccc(CCNC[C@H](O)c2ccc(O)cc2)cc1OC
→ >57	1%
> CCOC(=O)c1nnn(CC(=O)Nc2ccccc2OC)c1C(=O)OCC
→ >57	-19%
> CCOC(=O)N1CCN(C(=O)c2cc(C)no2)CC1
→ >57	-1%
> Cc1ccc(C)n1CCN1CCN(C(=O)c2ccco2)CC1
→ >57	4%
> CCCNC(=O)CS(=O)(=O)Cc1nc(-c2ccccc2C)oc1C
→ >57	-9%
> O=C(c1csnn1)N1CCC[C@@]2(CCN(C(c3ccccc3)c3ccccc3)C2)C1
→ >57	?
> CCCCCC(=O)c1cc(CC(C(=O)OC)C(=O)OC)cc2cc(OC)c(OC)cc12
→ ·	-6%[8 µM]
> O=c1[nH]c2c(c3c1CCCC3)CCCC2
→ >57	8%
> COc1cc(CN2CC(C)OC(C)C2)cc(OC)c1 (stereo not given)
→ ·	1%
> CC(C)OC(=O)CSc1nnc(-c2ccco2)n1N
→ >57	-13%
> CC(=O)NCCc1c[nH]c2ccccc12
→ >57&>57	-1%&-8%
> CN1CCN(c2oc(-c3ccco3)nc2S(=O)(=O)c2ccccc2)CC1
→ >57	-4%
> CC(C)[C@@]1(NC(=O)[C@@H]2C[C@H]3c4cccc5[nH]cc(c45)C[C@@H]3N(C)C2)O[C@@]2(O)[C@H]3CCCN3C(=O)[C@@H](Cc3ccccc3)N2C1=O
→ >57	?
> CC(C)(C)C(=O)NC1CCN(S(=O)(=O)c2ccccc2F)CC1
→ >57	-2%
> CC(C)CN(CC(C)C)C(=O)C12CCC(C)(C(=O)C1)C2(C)C (stereo not given)
→ >57	-1%
> CCOC(=O)N1CCN(C(=O)c2cc(S(=O)(=O)N3CCCC3)cn2C)CC1
→ >57	?
> CN(C)C(=O)Oc1ccc(OC(=O)c2ccccc2)cc1
→ >57	5%
> COc1ccc(NC(=O)C2CCN(C(=O)NCc3ccccc3)CC2)cc1
→ >57	-16%
> Cc1cc(C(=O)CN(Cc2ccc(F)cc2)S(=O)(=O)c2ccc3c(c2)OCCO3)c(C)n1C
→ >57	?
> CCc1ncc(C(O)c2cccc(OC)c2OC)n1C (stereo not given)
→ >57	1%
> C#CCCCO/N=C1/C[C@@H](O)[C@@H](O)[C@@H]2[C@@H]3C(=O)N(C(C)(C)C)C(=O)[C@H]3CC[C@@H]12
→ ·	6%[0.32 µM]
> COc1ccccc1-c1ccc2ncnc(NC3CC3)c2c1
→ >57	-4%
> CCCCn1c(O)c(C(CC)=Nc2cccc(C(=O)O)c2)c(=O)[nH]c1=O
→ >57	-23%
> O=C(NCc1ccc2c(c1)OCO2)c1cccc(C(=O)NCc2ccc3c(c2)OCO3)c1
→ ·	?
> C#CCCCO/N=C1/C[C@@H](O)[C@@H](O)[C@@H]2[C@@H]3C(=O)N(Cc4ccc5c(c4)OCO5)C(=O)[C@H]3CC[C@@H]12
→ ·	7%[8 µM]
> OCCNCCCOc1cccc(Cl)c1Cl
→ >57	-4%
> COC(=O)CN(C#N)c1nc(OC)nc(N(C)C)n1
→ >57	-5%
> c1ccc(-c2ccccc2-c2nc(-c3cccnc3)no2)cc1
→ >57	?
> Cc1ccc(NC(=O)C2CCCN(S(=O)(=O)c3ccc4c(c3)oc(=O)n4C)C2)nc1 (stereo not given)
→ >57	3%
> CCCOc1ccc(CCN2CCC(=O)NC2=O)cc1C
→ >57	-3%
> Cc1ccc(NC(=O)CS(=O)CC(=O)NCCCN(C)c2ccccc2)cc1 (stereo not given)
→ >57	16%
> Cc1ccc(S(=O)(=O)N2CCN(Cc3cccc(C)c3O)CC2)cc1
→ >57	4%
> Cc1ccc(S(=O)(=O)NC(C)C(c2cccs2)N2CCN(C)CC2)cc1 (stereo not given)
→ >57	?
> O=C(Nc1cccc(Oc2ccc3c(c2)C(=O)NC3=O)c1)c1ccco1
→ >57	-19%
> c1ccc2c(NC3CC3)nc(-c3ccoc3)nc2c1
→ >57	?
> Nc1cccc(C(F)(F)F)c1
→ ·	-5%
> CC(C)c1nnc(NC(=O)C2CCN(c3nc4ccccc4s3)CC2)s1
→ >57	-9%
> CC(=O)Nc1c(O)n(C)c2ccccc12
→ >57	4%
> c1ccc(NCc2nnc3n2CCCCC3)cc1
→ >57	24%
> O=C(C1CCN(S(=O)(=O)c2cccc3nsnc23)CC1)N1CCN(c2ccccc2F)CC1
→ >57	7%
> Cc1onc(-c2c(Cl)cccc2Cl)c1C(=O)Nc1ccc2c(c1)OCO2
→ ·	?
> CCOC(=O)[C@H](CCc1ccccc1)N[C@@H](C)C(=O)N1CCC[C@H]1C(=O)O
→ >57	?
> O=C1CCCC(O)=C1C1C2=C(CCCC2=O)Oc2ccccc21 (stereo not given)
→ >57	3%
> CCS(=O)(=O)CCSc1nc(C)cc(C)c1C#N
→ >57	-3%
> O=C(COC(=O)c1ccc(S(=O)(=O)N2CCCC2)cc1)NCc1ccccc1
→ >57	1%
> CC1=C(C(=O)OC(C)C)C(c2c[nH]c3ccccc23)n2ncnc2N1 (stereo not given)
→ >57	4%
> CCOC(=O)c1cc(C#N)c(SCC(=O)c2cc(C#N)c(SC)nc2C)nc1C
→ >57	?
